Screening results deposited in PubChem by National Center for Advancing Translational Sciences (NCATS).
Rango complex inh: qHTS Assay for Inhibitors of Rango (Ran-regulated importin-beta cargo) - Importin beta complex formation | Importin subunit beta-1 (Homo sapiens), Q14974 | Rango CFP/YFP FRET sensor + importin beta, 45 min | Potency, µM (highest dose often 92.2 µM), for the others: top-dose inhibition of complex formation | actives 0.031% (n = 340,000); active = rising FRET ratio curve, often small or poorly fitted; inconclusive = mostly compound fluorescence or quenching in the first reads; inactive = flat curves in all reads;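 further: potency means the concentration at half of the fitted maximal effect; 0% = DMSO wells and 100% = buffer wells lacking importin beta; nearly all actives have a fitted effect of over 15% in size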
Target sequence (Q14974 whole entry, looked up): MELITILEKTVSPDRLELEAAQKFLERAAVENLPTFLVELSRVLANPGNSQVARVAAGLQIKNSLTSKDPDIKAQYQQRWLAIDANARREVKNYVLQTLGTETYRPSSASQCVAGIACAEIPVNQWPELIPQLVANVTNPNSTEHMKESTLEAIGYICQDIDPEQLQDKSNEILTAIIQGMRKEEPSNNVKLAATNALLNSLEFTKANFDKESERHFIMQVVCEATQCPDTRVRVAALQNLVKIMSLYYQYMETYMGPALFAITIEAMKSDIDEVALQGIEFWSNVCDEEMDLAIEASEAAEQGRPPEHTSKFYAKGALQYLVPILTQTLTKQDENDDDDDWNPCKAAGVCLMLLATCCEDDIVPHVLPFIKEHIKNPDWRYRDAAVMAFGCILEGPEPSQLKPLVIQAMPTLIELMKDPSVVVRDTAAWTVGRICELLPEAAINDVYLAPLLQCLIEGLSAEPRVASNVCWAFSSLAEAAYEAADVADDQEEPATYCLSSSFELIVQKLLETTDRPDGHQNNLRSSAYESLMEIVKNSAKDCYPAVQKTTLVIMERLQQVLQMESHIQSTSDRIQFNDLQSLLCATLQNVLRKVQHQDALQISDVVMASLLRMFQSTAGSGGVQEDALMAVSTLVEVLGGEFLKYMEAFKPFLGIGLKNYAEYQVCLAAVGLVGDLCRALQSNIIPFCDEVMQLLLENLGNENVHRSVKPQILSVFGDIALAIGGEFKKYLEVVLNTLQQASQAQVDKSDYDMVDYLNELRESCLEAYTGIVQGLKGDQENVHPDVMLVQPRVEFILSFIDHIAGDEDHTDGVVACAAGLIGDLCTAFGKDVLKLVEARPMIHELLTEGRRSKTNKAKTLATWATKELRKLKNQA
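FRET biosensor Rango (snurportin 1 IBB between N-terminal EYFP and C-terminal Cerulean), 50 nM in PBS/1 mM DTT/0.02% Tween-20/0.1% BSA, preincubated 5 min RT with compound; 0.125 microM importin beta added, 45 min RT, CFP/YFP FRET ratio read.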
GLA inh pH 4.5: qHTS Assay for Inhibitors of Human alpha-Galactosidase at pH 4.5; purified enzyme, 4-MU-alpha-Gal fluorescence, pH 4.5; Alpha-galactosidase A (Homo sapiens), P06280; 230,000 tested, under 10 active; activity change, negative = inhibition, % at 105 µM; inconclusive = small, poorly fitted or top-dose-only inhibition, or a rising curve; inactive = flat fitted curve, though single readings scatter; no compound was filed as active;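 further: 0% = full activity with enzyme and -100% = basal without enzyme; dose as in the result columns while the protocol names 77 µM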
Rango release inh: qHTS Assay for Inhibitors of RanGTP induced Rango (Ran-regulated importin-beta cargo) - Importin beta complex dissociation | Snurportin-1 (Homo sapiens) + GTP-binding nuclear protein Ran (Homo sapiens) + Importin … | Biochemical FRET Rango-importin beta, RanGTP-induced dissociation | Potency, µM (series often up to 46.1 µM), for the others: top-dose activity change, negative = inhibition | actives 0.071% (n = 340,000); active means falling FRET ratio curve, often poorly fitted, with flat reads before Ran was added; inconclusive means other falling curves, or compound fluorescence or quenching; inactive means flat or rising ratio curve;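 further: potency means the concentration at half of the fitted maximal effect; % of control where 0% means no effect; nearly all actives have a fitted effect of over 45% in size; -100% = wells without RanGTP and RCC1; the record marks most hits as doubtful in a second field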
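Two FRET readings bracket the reaction: one 5 min after compound meets Rango–importin beta, another 45 min after RanGTP-RCC1 (0.6 uM Ran, 0.2 uM RCC1, 2 mM GTP) is added. Only the second defines inhibition.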
miR-21 reporter: qHTS Assay for Modulators of miRNAs and/orActivators of miR-21 | Potency, µM (top dose mostly 38.3 µM), without a hit: top-dose reporter change, positive = more light | 340,000 tested, under 10 active | HeLa miR-21 FLuc reporter, luciferase, 48 h; active = well fitted rising curve with a large enough effect; inconclusive = small, poorly fitted or top-dose-only effect; inactive = no such curve, though single readings can be large or run the other way;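 further: % of control where 0% means no effect; miR-21 action dims this reporter so a rising signal means less miR-21 action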
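HeLa cells stably expressing CMV-driven firefly luciferase with a downstream miR-21 binding sequence, endogenously expressing miR-21, were treated with titrations (up to about 40uM final) for 48 hours at 37 degree Celsius. Luciferase luminescence was read after lysis.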
Starred values were filed as active, the others as inactive; ? = inconclusive; . = no result given; & = joins results of further samples.

SMILES	Rango complex inh	GLA inh pH 4.5	Rango release inh	miR-21 reporter
CCC(=O)N1CCc2cc(S(=O)(=O)N(C)c3ccc(Br)cc3)ccc21	-1.2%	.	14%	0%
COc1ccc(CCNC(=O)CSc2nc(C)nc3sccc23)cc1OC	?	0	5%	5%
Cc1cccc(CN2CCC(Oc3ccc(C(=O)N4CCCCC4)cc3)CC2)c1	-1.8%	.	?	3%
Cc1ccc(/C=C/C(=O)Nc2ccc(S(N)(=O)=O)cc2)o1	?	13	-24%	2%&1%
O=C(Cc1c[nH]c2ccccc12)Nc1nnc(C2CC2)s1	-0.1%	-19	-6%	21%
COCCCn1nnnc1SCC(=O)Nc1nc2ccccc2s1	-0.1%	.	-16%	-5%
O=C(CSCc1ccc(F)cc1)Nc1ccccc1C(=O)N1CCOCC1	-2.3%	6	-2%	-1%
O=C(NCC(=O)N1CCCC1)c1cccs1	2.2%	-5	18%	-31%
COc1ccc(/C=N/NC(=O)Cn2c(Cc3ccc(OC)c(OC)c3)nc3ccccc32)cc1	-1.0%	2	-1%	-6%
Cc1cc(C)c2oc(=O)cc(CN3CCN(Cc4ccccc4)CC3)c2c1	-0.1%	.	7%	4%
CCOC(=O)c1cc(-c2csc(-c3cccc(Cl)c3)n2)on1	-2.5%	-2	-1%	0%
CCOc1ccc(NC(=O)CC2C(=O)N(C)C(=S)N2Cc2ccco2)cc1 (centres undefined)	-0.1%	1	1%	12%
O=C(CSc1nnc(Cc2ccccc2)n1-c1ccc(F)cc1)N1CCOCC1	0.7%	-6	-5%	-6%
CC(=O)N1CCN(C(=O)c2ccco2)CC1	-4.0%	.	?	0%
CC1CCN(CC(=O)Nc2ccc(N3CCCCCC3)cc2)CC1	5.3%	-13	47%	-4%
O=C(NCCC1CCCCN1S(=O)(=O)c1ccccc1)C(=O)Nc1ccc(F)cc1 (centres undefined)	-1.9%	.	9%	.
COc1ccc(C)cc1NC(=O)CSc1ccc(-c2ccccn2)nn1	-0.9%	.	14%	5%&9%
COCC1CCN(C(=O)c2ccc3oc(Cc4ccccc4)nc3c2)C1 (centres undefined)	-1.5%	.	7%	-35%
CC(C)n1nnc(-c2ccc(OCc3ccccc3F)cc2)n1	2.8%	.	15%	-49%
COc1ccccc1NS(=O)(=O)c1cc(NC(=O)Cc2n[nH]c(=O)c3ccccc23)ccc1Cl	-2.8%	.	-5%	.

In the list so far, 3 contain a furan ring, fused or not:
SMILES	Rango complex inh	GLA inh pH 4.5	Rango release inh	miR-21 reporter
Cc1ccc(/C=C/C(=O)Nc2ccc(S(N)(=O)=O)cc2)o1	?	13	-24%	2%&1%
CCOc1ccc(NC(=O)CC2C(=O)N(C)C(=S)N2Cc2ccco2)cc1 (centres undefined)	-0.1%	1	1%	12%
CC(=O)N1CCN(C(=O)c2ccco2)CC1	-4.0%	.	?	0%

Next part.
SMILES	Rango complex inh	GLA inh pH 4.5	Rango release inh	miR-21 reporter
CN(c1ccc(C(=O)NCC2CCCO2)cc1)S(=O)(=O)c1ccccc1 (centres undefined)	-5.0%	5	35%	-1%
CCC(C(=O)OC)n1cnc2scc(-c3ccc(C)c(C)c3)c2c1=O (centres undefined)	-1.7%	.	-9%	-3%
CC(=O)Nc1cccc(C(=O)O)n1	0.5%	-3	4%	4%
CCOCCCNC(=O)c1c[nH]c2ccc(C)cc2c1=O	1.4%	-3	11%	7%
COc1ccccc1N1CCN(c2nc3c(C)cccn3c(=O)c2C=O)CC1	-4.7%	-2	11%	-7%
COc1ccc(C(=O)O)cc1S(=O)(=O)NCc1ccncc1	4.6%	.	-2%	.
O=C(CCNC(=O)Cn1ccc2ccccc2c1=O)NCCCN1CCN(c2ccc(F)cc2)CC1	9.4%	5	-5%	12%
CCC(c1nnnn1Cc1ccc(OC)cc1)N(CCCO)Cc1cc2cc3c(cc2[nH]c1=O)OCO3 (centres undefined)	?	-2	?	-1%
Fc1ccc(Nc2nc(Oc3ccc4c(c3)OCO4)nc(N3CCOCC3)n2)c(F)c1	-4.0%	2	-12%	-3%
COc1ccc(/C=C/C(=O)OCc2cccc([N+](=O)[O-])c2)cc1	-3.4%	-4	0%	-4%
O=C(CCn1c(=O)oc2ccccc21)Nc1nc2ccccc2s1	0.5%	5	0%	-20%
CC(C)OC(=O)COc1ccc(-c2ccccc2)cc1	-2.0%	2	0%	-1%
CC1(C)C2CC[C@]1(C)C(=O)N(CCCCN1CCN(c3ccccn3)CC1)C2=O	1.3%	.	0%	-2%
O=C(NCC1CCCO1)c1cc(S(=O)(=O)N2CCCC2)c(Cl)cc1Cl (centres undefined)	-4.3%	-3	-6%	-1%
O=C(CNC(=O)c1sc2ccccc2c1Cl)NC1CC1	-1.3%	.	2%	-26%
Cc1ccc(-c2nn(-c3ccccc3)cc2C2CC(c3cccs3)=NN2C(=O)CCC(=O)O)cc1 (centres undefined)	0.2%	-13	0%	-10%
CCOc1ccc(NC(=S)N(CCc2c(C)[nH]c3ccc(C)cc23)Cc2ccco2)cc1	3.9%	10	-20%	9%
CCC1(CC)SC(N)=NC1=O	4.8%	.	11%	.
CN(CC1CCCN(CCc2cccc(C(F)(F)F)c2)C1)C(=O)c1ccco1 (centres undefined)	1.7%	.	28%	-4%
CCC(=O)Nc1cccc(C2=NOC3(C2)C[C@@H](C(N)=O)N(C(=O)C2(C)CC2)C3)c1 (some centres undefined)	0.0%	0	-7%	6%
Cc1[nH]c(=O)c(Cc2ccccc2)c(O)c1C#N	0.0%	.	6%	.
O=C(Nc1cccc(C(F)(F)F)c1)c1c(O)c2ccccc2[nH]c1=O	-1.9%	.	8%	2%
Cc1cccc(N/N=C/c2ccc(C)s2)c1	3.2%	.	6%	-50%
O=C(NCC1CCCO1)c1csc(Nc2cccc3ccccc23)n1 (centres undefined)	-0.1%	0	9%	8%
CCOc1ccc(NC(=O)C2CCC(C)(C(=O)O)C2(C)C)cc1 (centres undefined)	-0.9%	4	9%	1%
COc1ccccc1NS(=O)(=O)c1cc(C(=O)NCC(c2ccc(F)cc2)N2CCOCC2)ccc1C (centres undefined)	0.8%	.	-14%	.
O=C(/C=C/c1ccco1)N1CCN(S(=O)(=O)c2cccc([N+](=O)[O-])c2)CC1	-3.5%	.	-9%	.
CCCC1CC(=O)OC1(C)C(=O)CSc1n[nH]c(-c2ccccc2)n1 (centres undefined)	.	-23	.	-14%
Cc1ccnc(NC(=O)CCC(=O)N(CC(=O)NCCc2ccccc2)Cc2cccs2)c1	-4.3%	7	-6%	3%
O=S1(=O)C=C(SCc2ccc(F)cc2)Nc2ccccc21	0.2%	2	1%	1%
Cn1cccc1Cc1nnc(SCC(=O)Nc2cccc(F)c2)n1-c1ccc(F)cc1	-7.7%	0	41%	-2%
O=C(O)Cc1cc2c(s1)CCCCC2	2.7%	3	1%	-6%
COc1ccccc1NC(=O)Cc1nnc(SCC(=O)Nc2ccccc2F)n1C	-4.7%	2	0%	-3%
Cc1cc(C(=O)O/N=C(\N)c2ccncc2)ccc1[N+](=O)[O-]	0.3%	2	-5%	-67%
O=C(CN1CCN(c2ccccn2)CC1)Nc1nc2ccccc2s1	-2.0%	.	-9%	-10%
O=C(COc1ccc(Cl)cc1Cl)N(C1CCCCC1)C1CCS(=O)(=O)C1 (centres undefined)	-5.0%	.	-7%	.
N#Cc1c(NC(=O)CSc2ncn[nH]2)sc2c1CCCC2	-0.9%	-17	2%	?
Cc1cc(Nc2ccccc2Br)n2nc(C)nc2n1	3.0%	14	-13%	-14%
O=[N+]([O-])c1cc([N+](=O)[O-])c(N2CCOCC2)cc1NCc1ccccc1	1.1%	-9	2%	-11%
CCOCCCNC(=O)CCc1ccc(-n2cnc3cccnc32)cc1	-6.8%	.	5%	4%
Cc1csc(SCc2c(C(=O)O)oc3ccccc23)n1	-2.4%	6	0%	-3%
O=C(NCCc1cccs1)C12CN(Cc3ccccc3)CC1C(c1cccc([N+](=O)[O-])c1)=NO2 (centres undefined)	-0.7%	-20	-8%	1%
CN(CC(=O)Nc1ccc(Cl)cc1)C(=O)C1CCCC1	0.0%	.	0%	.
Cc1ccc(C(=O)N/C(=C/c2ccccc2)C(=O)NCc2ccncc2)cc1	-2.4%	4	18%	-1%
COc1cc(-c2noc(C3CCCN(S(=O)(=O)c4cccc(Cl)c4)C3)n2)cc(OC)c1OC (centres undefined)	-1.6%	-12	-4%	0%
Cc1ccc(NC(=O)CN(C)C(=O)CCOc2cccc(C)c2)cc1	-0.1%	-3	22%	-5%
CCCn1nc(C(=O)NNC(=O)CCCOc2ccc(OC)cc2)c2ccccc2c1=O	1.7%	.	4%	.
CCCCC(=O)NCc1ccc2c(c1)cc(C)n2C	1.3%	-5	12%	-11%
CCN1CCN(C(=O)c2ccc(COc3ccc(Cl)cc3)o2)CC1	-1.0%	-1	-8%	-8%
Cc1ccc(S(=O)(=O)Nn2c(C)ccc2C)cc1	2.5%	-3	-6%	-3%
CCOC(=O)[C@@H]1[C@H]2COc3cc(OC)ccc3[C@H]2N2C(=O)N(c3ccc(OC)cc3)C(=O)[C@]12C	6.2%	.	-4%	.
N#CCCN(C(=O)COC(=O)Cc1c[nH]c2ccccc12)c1ccccc1	0.1%	.	-1%	.
O=C(CCCOc1ccc(Br)cc1)Nc1ccc(S(=O)(=O)N2CCOCC2)cc1	-3.6%	.	-2%	.
CC(=O)N1CCN(c2nnnn2-c2ccccc2)CC1	2.0%	-8	0%	0%
CCOc1ccc(NS(=O)(=O)c2ccc(C(=O)NCc3cccnc3)cc2)cc1	1.4%	.	1%	.
CN(C)CCn1c2c(c(SCC(=O)Nc3cccc(C(F)(F)F)c3)nc1=O)CCCC2	1.8%	.	0%	.
OCC1(C2=NOC(O)(C(F)(F)F)C2)CCCCC1 (centres undefined)	1.7%	11	2%	2%
O=C(Cn1cnc2cc([N+](=O)[O-])ccc2c1=O)Nc1ccc2c(c1)OCO2	-0.9%	-16	0%	-2%
CCOc1ccccc1Nc1nc(-c2sc(NC(=O)c3ccccc3)nc2C)cs1	.	-3	.	-12%
COc1ccc(CCC(=O)N2CCN(S(=O)(=O)c3cccc(C(F)(F)F)c3)CC2)cc1OC	-4.8%	.	-1%	.

The list goes on:
SMILES	Rango complex inh	GLA inh pH 4.5	Rango release inh	miR-21 reporter
Cc1oc(-c2ccccc2F)nc1CSCC(=O)NC1CCCC1	-2.2%	.	1%	4%
Cn1nc(C(=O)OCC(=O)Nc2ccc(C(N)=O)cc2)c2ccccc2c1=O	0.6%	.	-1%	.
C/C(=N/NC(=O)CCCOc1ccc(Cl)cc1Cl)c1ccc(C)o1	-2.8%	5	13%	-6%
Cc1ccccc1CNCc1cccnc1	-0.5%	8	0%	-5%
Cc1nnc(NC(=O)CSc2nnc(-c3ccccc3)n2C)s1	-0.7%	-16	2%	-3%
CC(=O)N1CCN=C1SCc1ccc(Br)cc1	0.1%	4	-1%	-4%
O=C(O)c1cccc(CSc2nnc(-c3ccco3)o2)c1	5.0%	1	1%	6%
Cc1nnc(NC(=O)c2sc3ccccc3c2Cl)s1	3.1%	-1	2%	27%
COc1ccccc1C(=O)NCC(=O)N/N=C/c1cccc(Cl)c1	4.8%	-3	11%	-8%
Cc1cc(C(=O)COC(=O)/C=C/c2cccc(F)c2)c(C)n1C	3.6%	-3	-1%	-3%
CCCCOc1ccc(N(CC(=O)NCCOC)C(=O)CCC(=O)Nc2ccccn2)cc1	1.5%	.	-15%	1%

2 of these compounds, set out differently:
Cc1cc(C(=O)COC(=O)/C=C/c2cccc(F)c2)c(C)n1C
  Rango complex inh = 3.6%; GLA inh pH 4.5 = -3; Rango release inh = -1%; miR-21 reporter = -3%

Cc1ccccc1CNCc1cccnc1
  Rango complex inh = -0.5%; GLA inh pH 4.5 = 8; Rango release inh = 0%; miR-21 reporter = -5%

This is a subset. The share of hits here may be higher or lower than overall.
